Source: PubChem (several laboratories)
eIF4H inh = human eIF4H binding inhibitors, primary screen, translation initiation inhibitor project, biochemical, uHTS, fluorescence polarization | eIF4H fluorescence polarization binding assay | 290,000 compounds, 0.94% hits | Eukaryotic translation initiation factor 4H (Homo sapiens), Q15056 | AID 2012, 2009 | inhibition, % at 35 µM;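 active = 50% or more with normal probe brightness, or confirmed in later tests; inconclusive = above 50% with abnormal brightness, or retests that disagree; inactive = below 50% or failed in later tests; about a fifth of its hits are not listed in these tables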;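 also: calls also rest on retests at 20 µM and on dose response follow-up; 0% = protein and probe with vehicle and 100% = probe without protein; strong numbers were not always called active; many hits fall short of the cut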
Rce1 inh = yeast Rce1p protease inhibitors, primary screen, biochemical, fluorescence, cell-free homogeneous; CAAX prenyl protease 2 (Saccharomyces cerevisiae (strain ATCC 204508 / S288c)), Q03530; calls only; yeast membranes, quenched prenylated peptide cleavage fluorescence; 290,000 compounds, 0.27% hits;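 active = fall in fluorescence gain of 50% or more versus controls, with final raw signal at or below 3038400; inconclusive = same 50% fall but final raw signal above 3038400; inactive = fall in fluorescence gain under 50%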;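 also: plate controls were neutral control wells for no effect and wells lacking membranes for full effect; tested at 10 µM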
Target sequence (Q03530 whole entry, looked up): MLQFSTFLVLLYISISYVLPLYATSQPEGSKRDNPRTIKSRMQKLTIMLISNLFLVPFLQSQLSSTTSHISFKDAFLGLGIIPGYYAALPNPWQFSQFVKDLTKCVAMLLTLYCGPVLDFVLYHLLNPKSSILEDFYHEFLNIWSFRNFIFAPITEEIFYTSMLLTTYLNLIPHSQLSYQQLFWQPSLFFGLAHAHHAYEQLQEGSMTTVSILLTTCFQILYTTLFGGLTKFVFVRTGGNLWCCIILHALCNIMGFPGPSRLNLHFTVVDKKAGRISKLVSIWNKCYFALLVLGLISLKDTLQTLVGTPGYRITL
CSC inhib = cancer stem cell viability inhibitors, primary screen, luminescence | cancer stem cell-like cells viability | inhibition, % at 7.5 µM | 300,000 compounds, 1.1% hits | AID 2717, 2010;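 active = mean at 75% or more and at least half the replicates too; inconclusive = mean and replicates disagree; tested in HMLE shEcad cells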;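 also: 0% = median of negative and 100% = median of positive control wells; the first replicate is given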
HIV Env fusion = inhibitors of HIV-1 Env-driven cell-cell fusion, primary screen, HeLa-JRFL effector, CEM21 target cells, luciferase; inhibition, % at 12.3 µM; 360,000 compounds, 1.1% hits;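 active = mean replicate inhibition score of at least 50 and every replicate individually at or above 50; inconclusive = only one of the two criteria met; inactive = mean below 50 and not all replicates reaching 50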;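 also: 0% = plate neutral controls and 100% = maraviroc near 300 nM; one replicate is shown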
UUG fidelity = modulators of yeast start codon fidelity, primary screen, whole organism, S. cerevisiae, single point, plate reader; S. cerevisiae UUG-firefly luciferase reporter, luminescence/redox ratio; activity score, % at 18.7 µM; 350,000 compounds, 0.13% hits;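 active = replicate mean at a twofold rise or more, about +100% in these data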;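 also: firefly luciferase made from a UUG start codon reports start codon fidelity; reporter light over untreated wells divided by growth signal over untreated wells; some hits fall short of that in this replicate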
PABP polyA inh = PABP poly(A) RNA binding inhibitors, primary screen, biochemical, fluorescence polarization, uHTS. Polyadenylate-binding protein 1 (Homo sapiens), P11940. inhibition, % at 35 µM. 290,000 compounds, 1% hits;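 active = 50% or more with normal probe brightness, or confirmed in later tests; inconclusive = above 50% with abnormal brightness, or retests that disagree; inactive = below 50% or failed in later tests; about a fifth of its hits are not listed in these tables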;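 also: calls also rest on retests at 20 µM and on dose response follow-up; controls were probe without protein and protein plus probe with vehicle; some compounds called inactive have numbers as strong as hits; many hits fall short of the cut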
MT1-MMP act inh = blockers of MT1-MMP proenzyme processing, primary screen, HT1080 RFP-PRO-GFP cells, GFP/RFP fluorescence; 360,000 compounds, 0.061% hits; AID 651647, 2012; GFP/RFP ratio fluorescence, overnight; percent of plate control window, DMSO zero; GFP/RFP ratio change, % at 20 µM;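 active = GFP/RFP ratio change of at least 30% with cell ATP level not reduced by more than half and red fluorescence within 50% of control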; also: strong numbers were not always called active
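Assay system: HT1080 RFP-PRO-GFP cells. Benchmarks: DMSO vehicle wells and RFP-L50D-GFP reporter cell wells. Times: overnight cell settling, then overnight compound exposure, 37 °C, 5% CO2. Compound: 20 µM single dose, 1% DMSO. Read-out basis: GFP/RFP fluorescence ratio.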
eIF4H inh retest = also measured in eIF4H inh; calls as there; inhibition, %; compound at 20 µM; confirmation average;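 mean of two retest wells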
PABP polyA inh retest = second read-out of PABP polyA inh, no call of its own (marks repeat the call); inhibition, %; compound at 20 µM; confirmation repeats;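 mean of two retest wells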
MT1-MMP act inh RFP = recorded beside MT1-MMP act inh, whose call it bears; RFP signal change, %; measured here: RFP expression control read;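 0 = vehicle wells; hits needed this value within 50% of zero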
Active calls of the source: *; i = inactive; ? = inconclusive; · = no result given.

SMILES	eIF4H inh	Rce1 inh	CSC inhib	HIV Env fusion	UUG fidelity	PABP polyA inh	MT1-MMP act inh	MT1-MMP act inh RFP	others
O=C(c1ccc(F)cc1)N(Cc1ccccc1)C1CCS(=O)(=O)C1 (configuration not stated)	-6	i	-3	·	-12	-10	0	0
COc1cc(OC)c(-c2nc(-c3ccncc3)no2)cc1OC	-7	i	-9	11	1	0	-1	-3
N[C@@H](Cc1ccccc1)C(=O)N1CCC(C(=O)N[C@@H](Cc2c[nH]c3ccccc23)C(=O)O)CC1	-9	i	-5	-2	-11	15	-5	4
COc1ccc(NC(=O)c2cccs2)cc1NC(=O)c1ccco1	-10	i	16	-66	-3	-2	11	-2
CSc1ccccc1NC(=S)N/N=C/c1cccn1Cc1ccc(F)cc1	6	i	5	11	·	90	-8	-19	eIF4H inh retest=-11;PABP polyA inh retest=-2
CCCOC(=O)c1[nH]c2c(c1C)C(=O)CC(c1ccc(OC)c(OC)c1)C2 (configuration not stated)	-4	i	-16	·	·	16	4	-13
COc1ccc(C(=O)O/N=C(\N)c2ccc(OC)c(OC)c2)c(OC)c1	-10	i	-9	·	6	3	7	-1
CC(Sc1ncn[nH]1)C(=O)Nc1ccc(Cl)cn1 (configuration not stated)	·	i	-6	-11	-4	·	-2	4
COc1ccccc1C1C(C#N)=C(N)Oc2cc(C)n(CCCn3ccnc3)c(=O)c21 (configuration not stated)	1	i	-19	-16	-5	18	-2	4
Cc1ccc(SC[C@H](Cc2ccccc2)N2CC[C@@H](C)CCC2=O)cc1	0	i	22	27	-7	-6	-9	-11
Cc1cc(C(=O)OCC(=O)NC(C)C)c(C)o1	-2	i	·	-53	-1	-3	0	4
Cc1noc(C)c1NC(=O)Nc1cccc2c1O[C@H](CN(C)C(=O)Nc1ccccc1)[C@@H](C)CN([C@H](C)CO)C2=O	·	·	·	-4	-10	·	-2	6

Ordered by formula weight (low to high): part of the list above
SMILES	eIF4H inh	Rce1 inh	CSC inhib	HIV Env fusion	UUG fidelity	PABP polyA inh	MT1-MMP act inh	MT1-MMP act inh RFP	others
Cc1cc(C(=O)OCC(=O)NC(C)C)c(C)o1	-2	i	·	-53	-1	-3	0	4
CC(Sc1ncn[nH]1)C(=O)Nc1ccc(Cl)cn1 (configuration not stated)	·	i	-6	-11	-4	·	-2	4
COc1ccccc1C1C(C#N)=C(N)Oc2cc(C)n(CCCn3ccnc3)c(=O)c21 (configuration not stated)	1	i	-19	-16	-5	18	-2	4
Cc1noc(C)c1NC(=O)Nc1cccc2c1O[C@H](CN(C)C(=O)Nc1ccccc1)[C@@H](C)CN([C@H](C)CO)C2=O	·	·	·	-4	-10	·	-2	6

(list continues)
SMILES	eIF4H inh	Rce1 inh	CSC inhib	HIV Env fusion	UUG fidelity	PABP polyA inh	MT1-MMP act inh	MT1-MMP act inh RFP	others
CCOC(=O)Cc1[nH]nc2c1C(c1ccoc1)C(C#N)=C(N)O2 (configuration not stated)	20	i	-6	-3	·	6	-9	0
CC1CN(C(=O)COC(=O)c2cccc(S(=O)(=O)N3CCc4ccccc43)c2)CC(C)O1 (configuration not stated)	·	·	-18	-4	-1	·	6	0
CCCc1nc2ccc(Cl)cn2c1Cc1ccccc1	·	·	·	-88	59	·	-1	7
CCCCNC(=O)N(O)C1N(/N=C/c2ccccc2F)C(=S)SC1(C)C (configuration not stated)	10	i	-5	81*	-1	2	-2	-3
O=C(CSc1nnnn1-c1ccccc1)NC(=O)NCc1ccco1	92	i	-1	·	-16	26	0	6	eIF4H inh retest=-8;PABP polyA inh retest=2
CC(C)C(NS(=O)(=O)c1ccccc1)C(=O)N1CCCC1 (configuration not stated)	-8	i	-10	-7	-20	5	-1	5
COCc1ccc(C(=O)N(C)CC2CCCN(CCc3ccc(Cl)cc3)C2)o1 (configuration not stated)	5	i	-1	2	-8	-1	0	2
O=C(OCCc1cc2ccccc2c(=O)o1)c1cccs1	·	·	7	-47	-3	·	2	-1
S=C(Nc1cc(Cl)cc(Cl)c1)NC1CCN(Cc2ccccc2)CC1	-7	i	75*	17	-12	-6	0	-5
COc1cccc(/C=N/NC(=O)C(=O)N2CCCC2)c1O	-2	i	12	·	-15	-14	2	-1
COc1ccc(CNC(=O)CSC(=S)N2CCCC2)cc1	·	·	·	8	-18	·	3	4
O=C(/C=C/c1ccc(Cl)cc1)NCc1ccco1	0	i	-6	-18	·	4	2	2
CCOc1ccc(C(=O)O/N=C(\N)c2ccc([N+](=O)[O-])cc2)cc1OCC	-4	i	·	·	·	0	3	-5
CSC1=NCCN1C(=O)c1c(F)cccc1F	9	i	3	-9	-12	0	5	0
COc1cc2cc(C(c3nnnn3C3CCCC3)N3CCCCCC3)c(=O)[nH]c2cc1OC (configuration not stated)	-2	i	-6	-31	·	-9	-4	-1
COc1ccc(OC)c(C(=O)NC(CC(N)=O)c2ccc(NCC3CC3)c([N+](=O)[O-])c2)c1 (configuration not stated)	0	i	7	-41	-15	-2	1	5
O=C(O)CCN1C(=O)C2C3c4ccccc4C(c4ccccc43)[C@@H]2C1=O (some centres not stated)	-12	i	-9	8	-13	11	-2	-1
COc1cc(OC)cc(-c2c(-c3ccc(F)cc3)c3cc(-c4ccc5c(c4)OCCO5)ccc3n2C)c1	·	·	4	33	0	·	-2	-6
CC(=O)N1N=C(c2ccccc2)CC1c1ccccc1 (configuration not stated)	-7	i	-10	12	-20	-6	3	-1
COc1ccc(-c2csc(N3C(=N)SCC3=O)n2)cc1	-3	i	2	-277	-16	-1	5	2
Cc1cc(NS(=O)(=O)c2ccc(NC(=O)c3cccc(OC(F)F)c3)cc2)nc(C)n1	-1	i	-16	-2	-17	-24	6	3
CN(CC(=O)Oc1ccc(-c2nnco2)cc1)S(=O)(=O)c1ccc(F)cc1	·	i	-3	·	-3	·	-2	1
Cc1ccc2c(c1)C1CN(C)CCC1N2C(=O)c1ccccc1NS(=O)(=O)c1cccc(C(F)(F)F)c1 (configuration not stated)	-7	i	-4	-75	·	14	-1	0
COC(=O)c1nc2n(n1)C(c1ccccc1OC)C1=C(CCCC1=O)N2 (configuration not stated)	-14	i	-12	·	-3	-2	0	2
Cc1ccccc1NC(=O)CN(C)S(=O)(=O)c1ccc2c(c1)n(C)c(=O)c(=O)n2C	-5	i	-4	-8	-24	-3	-5	1
Cc1ccc(-c2ccc(=O)n(CC(=O)NCc3ccco3)n2)cc1	8	·	-8	-142	-6	1	3	3
O=C(Cc1ccccc1F)NC1CCCc2ccccc21 (configuration not stated)	5	i	-3	-7	-2	4	-1	2
COc1cc(NC(=O)N[C@@H](Cc2ccccc2)C(=O)O)cc(OC)c1	4	i	-8	·	-10	10	-2	7
CCCCNC(=O)C1(C)CCN1C(=O)c1oc2ccccc2c1C (configuration not stated)	·	·	·	4	-3	·	-2	0
COc1ccc(S(=O)(=O)N2CCN(C(=O)C3CC(=O)N(c4ccccc4F)C3)CC2)cc1OC (configuration not stated)	·	·	·	-5	-1	·	-1	0
CC(=O)N1CCN(CC(=O)Nc2c(Cl)ccc(C)c2Cl)CC1	-2	i	-7	5	-6	-10	1	4
CC(=O)NN1C(=O)/C(=C2/Sc3ccccc3N2C)SC1=S	31	i	-7	-11	·	-7	-11	0
O=C(Nc1ccc(N2CCCC2)c(Cl)c1)c1ccc2c(c1)OCCO2	·	·	·	-44	-24	·	4	-4
Cc1cc(=O)n2nc(N3CCCC(C(=O)N4CCc5ccccc54)C3)sc2n1 (configuration not stated)	-6	i	-1	·	-5	-1	8	5
Cc1cc(C)n2nc(C(=O)NCC(=O)Nc3ccc(F)c(F)c3)nc2n1	·	i	-5	17	·	·	1	3
CC(C)NS(=O)(=O)c1ccc(NC(=O)C(C)Oc2ccc(C(=O)c3ccccc3)cc2)cc1 (configuration not stated)	3	i	5	14	·	-5	-2	-32
O=C1CC(N2CCN(c3ccc(F)cc3)CC2)C(=O)N1c1ccccc1 (configuration not stated)	-4	i	4	6	0	49	-1	-2
CC1CCCCN1C(=O)COC(=O)CNC(=O)c1ccc(Cl)cc1Cl (configuration not stated)	·	i	-14	25	·	·	-1	5
COc1ccc(-c2cc(-c3ccccc3)nc(N3CCCC3)n2)cc1OC	-2	i	-10	·	4	-9	-8	-9
O=C1NC2(CCCCC2)C(=O)N1Cc1cc(=O)n2ccsc2n1	25	i	-5	6	·	36	0	5
COc1ccc(COc2cc(-c3cccc(OC)c3)nc3ccc(NC(=O)c4ccc(C)cc4)cc23)cc1	-4	i	69	3	-8	0	1	-2
Cc1nc2ccccn2c1CN(C)C(=O)C1CCC(=O)N(CCc2cccc(F)c2)C1 (configuration not stated)	-5	i	5	6	-19	1	3	-1
COc1ccc(NC(=O)CCOc2ccc(C)cc2)c(OC)c1	0	i	·	20	-9	-6	3	1
CCC(Oc1ccccc1)C(=O)OCC(=O)Nc1c(C)nn(-c2ccccc2)c1C (configuration not stated)	·	·	·	1	9	·	0	4
COc1cccc(NC(=O)NCCCSC2CCCCC2)c1	2	i	-3	-13	-11	3	1	-3
Cc1cc2nnc(SCC(=O)NCc3ccco3)n2c2ccccc12	·	i	?	-63	-19	·	1	-12
Nc1nnc(N2CCCCCC2)s1	-5	i	-4	-6	-16	-13	11	9
Cc1cc(C)c(NC(=O)c2cc(=O)c3ccccc3o2)c(C)c1	3	i	5	7	·	4	-1	-3
C/C(CC(=O)Nc1ccc2c(c1)OCCO2)=N\NC(=O)COc1ccccc1	-4	i	5	-3	-11	5	7	5
COCCn1c(C)cc(C(=O)CSc2nc3ccccc3c(=O)[nH]2)c1C	11	i	-6	-47	-26	17	0	-13
COc1ccccc1C(c1nnnn1Cc1ccco1)N1CCN(c2cccc(C)c2C)CC1 (configuration not stated)	-4	i	42	8	-12	-5	-21	-17
COc1ccc(NC(=O)CSc2nnc(Cc3ccccc3)c(=O)n2N)cc1	·	i	-6	·	-2	·	1	0
COc1ccccc1NS(=O)(=O)c1cccc(NC(=O)Cc2cccs2)c1	-17	i	-2	·	-18	4	-1	-11
CCOCCCn1cnc2c([nH]c3cc(OC)ccc32)c1=O	-3	i	-10	-59	·	-2	8	7
Cc1cccc(NC(=O)c2cc3n(n2)C(C(F)(F)F)CC(c2ccc4c(c2)OCO4)N3)c1 (configuration not stated)	-7	i	-1	106*	·	-3	-3	-7
CCC(=O)c1ccc(N2CCCC2)c(F)c1	-1	i	·	·	-18	69	2	5	eIF4H inh retest=-4;PABP polyA inh retest=7
O=C(CNCc1cccs1)Nc1ccc(N2CCCCCC2)cc1	-2	i	9	-4	·	18	-2	-3
CCCCc1ccc(NC(=S)NCc2cccnc2)cc1	-8	i	0	2	-15	0	0	-6
COCc1nnc(NC(=O)c2cccc(NC(=O)C(C)C)c2)s1	-2	i	4	-11	-11	5	2	0
CN(c1ccccc1)S(=O)(=O)c1ccc(Cl)c(C(=O)Nc2nn[nH]n2)c1	-6	i	12	0	-29	-7	3	4
O=C(O)C1C2C=CC(C2)C1C(=O)NCc1ccccc1F (configuration not stated)	8	i	-6	10	-1	-2	-3	0
